MT1-MMP act inh – inhibitors of human MT1-MMP activation | HT1080 RFP-PRO-GFP cells, GFP/RFP ratio fluorescence, overnight; percent of plate control window, DMSO zero | GFP/RFP ratio change, % at 20 µM | hit rate 0.061% among 360,000 | AID 651647;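 active = GFP/RFP ratio change of at least 30% with cell ATP level not reduced by more than half and red fluorescence within 50% of control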; note: strong numbers were not always called active
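Assay system – RFP-PRO-GFP reporter HT1080 cells · Compound dosing – single dose of 20 µM compound, 1% DMSO final · Incubation – overnight compound exposure at 37 °C · Measure – GFP/RFP fluorescence ratio · Benchmarks – DMSO wells and RFP-L50D-GFP cells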
eIF4H inh – inhibitors of RNA binding by human eIF4H; inhibition, % at 35 µM; eIF4H fluorescence polarization binding assay; Q15056; hit rate 0.94% among 290,000; AID 2012;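 active = 50% or more with normal probe brightness, or confirmed in later tests; inconclusive = above 50% with abnormal brightness, or retests that disagree; inactive = below 50% or failed in later tests; about a fifth of its hits are not listed in these tables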;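 note: calls also rest on retests at 20 µM and on dose response follow-up; 0% = protein and probe with vehicle and 100% = probe without protein; strong numbers were not always called active; many hits fall short of the cut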
Env fusion inh – blocks HIV Env-driven cell-cell fusion. HeLa-JRFL Env/CEM21 cell fusion, luciferase. inhibition, % at 12.3 µM. hit rate 1.1% among 360,000;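 active = mean replicate inhibition score of at least 50 and every replicate individually at or above 50; inconclusive = only one of the two criteria met; inactive = mean below 50 and not all replicates reaching 50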;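 note: 0% = plate neutral controls and 100% = maraviroc near 300 nM; one replicate is shown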
PABP FP inh – PABP-poly(A) binding inhibition; P11940; PABP-poly(A) RNA binding, fluorescence polarization; inhibition, % at 35 µM; hit rate 1% among 290,000;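 active = 50% or more with normal probe brightness, or confirmed in later tests; inconclusive = above 50% with abnormal brightness, or retests that disagree; inactive = below 50% or failed in later tests; about a fifth of its hits are not listed in these tables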;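 note: calls also rest on retests at 20 µM and on dose response follow-up; controls were probe without protein and protein plus probe with vehicle; some compounds called inactive have numbers as strong as hits; many hits fall short of the cut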
Target sequence (P11940 whole entry, looked up): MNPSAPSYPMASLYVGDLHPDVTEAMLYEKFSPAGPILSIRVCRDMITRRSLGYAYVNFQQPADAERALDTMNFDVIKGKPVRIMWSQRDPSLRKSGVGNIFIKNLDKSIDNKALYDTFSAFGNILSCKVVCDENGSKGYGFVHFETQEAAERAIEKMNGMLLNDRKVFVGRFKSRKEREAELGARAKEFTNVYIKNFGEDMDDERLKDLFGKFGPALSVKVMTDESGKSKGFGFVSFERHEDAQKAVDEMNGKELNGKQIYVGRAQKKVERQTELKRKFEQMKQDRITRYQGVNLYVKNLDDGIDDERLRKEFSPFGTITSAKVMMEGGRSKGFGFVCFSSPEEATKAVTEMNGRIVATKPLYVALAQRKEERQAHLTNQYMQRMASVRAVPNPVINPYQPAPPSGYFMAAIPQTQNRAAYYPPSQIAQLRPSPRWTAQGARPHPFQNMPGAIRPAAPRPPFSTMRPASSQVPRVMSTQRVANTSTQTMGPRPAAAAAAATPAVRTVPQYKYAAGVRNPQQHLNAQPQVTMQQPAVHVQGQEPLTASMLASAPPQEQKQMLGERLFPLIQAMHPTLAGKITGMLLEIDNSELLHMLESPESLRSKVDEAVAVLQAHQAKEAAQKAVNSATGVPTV
Rce1 inhib – inhibitors of yeast Ras-converting enzyme; yeast membranes, quenched prenylated peptide cleavage fluorescence; calls only; hit rate 0.27% among 290,000; AID 2563;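 active = fall in fluorescence gain of 50% or more versus controls, with final raw signal at or below 3038400; inconclusive = same 50% fall but final raw signal above 3038400; inactive = fall in fluorescence gain under 50%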;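 note: plate controls were neutral control wells for no effect and wells lacking membranes for full effect; tested at 10 µM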
Target sequence (Q03530 whole entry, looked up): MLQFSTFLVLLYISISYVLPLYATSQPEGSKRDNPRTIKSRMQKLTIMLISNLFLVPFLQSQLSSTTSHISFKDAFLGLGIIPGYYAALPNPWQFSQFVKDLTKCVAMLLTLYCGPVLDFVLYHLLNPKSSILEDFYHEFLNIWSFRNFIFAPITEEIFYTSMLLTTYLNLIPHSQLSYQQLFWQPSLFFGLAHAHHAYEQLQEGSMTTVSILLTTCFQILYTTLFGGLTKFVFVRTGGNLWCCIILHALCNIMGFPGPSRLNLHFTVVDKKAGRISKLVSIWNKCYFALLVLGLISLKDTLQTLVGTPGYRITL
UUG fidelity – yeast start codon fidelity modulation | S. cerevisiae UUG-firefly luciferase reporter, luminescence/redox ratio | activity score, % at 18.7 µM | hit rate 0.13% among 350,000 | AID 602363;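 active = replicate mean at a twofold rise or more, about +100% in these data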;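 note: firefly luciferase made from a UUG start codon reports start codon fidelity; reporter light over untreated wells divided by growth signal over untreated wells; some hits fall short of that in this replicate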
CSC inhib – blocks cancer stem cells | cancer stem cell-like cells viability, luminescence | inhibition, % at 7.5 µM | hit rate 1.1% among 300,000;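 active = mean at 75% or more and at least half the replicates too; inconclusive = mean and replicates disagree; tested in HMLE shEcad cells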;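 note: 0% = median of negative and 100% = median of positive control wells; the first replicate is given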
MT1-MMP act inh RFP – second read-out of MT1-MMP act inh, no call of its own (marks repeat the call); RFP signal change, %; measured here: RFP expression control read;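 0 = vehicle wells; hits needed this value within 50% of zero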
Starred values were filed as active, the others as inactive; i = inactive; ? = inconclusive; . = no result given.

SMILES | MT1-MMP act inh | MT1-MMP act inh RFP | eIF4H inh | Env fusion inh | PABP FP inh | Rce1 inhib | UUG fidelity | CSC inhib
Cc1ccc(Cc2c(-c3ccc(F)cc3)nc3cc(C)ccn23)cc1 | -2 | -5 | . | 2 | . | . | 51 | .
C[C@@H]1ON(C)[C@H]2C[C@H]3c4[nH]c5ccccc5c4CCN3C(=O)[C@@H]12 | -2 | 5 | . | -15 | . | . | 5 | .
O=C(Cc1ccc(O)cc1)NC1CCCCCC1 | 0 | -1 | 3 | -26 | 1 | i | -4 | -7
COCCCNc1nc2nonc2nc1N1CCC(C(C)N2CCOCC2)CC1 (stereo unspecified) | -6 | 1 | 8 | 36 | -2 | i | -3 | 16
O=C(NCC(=O)N1CCCCCCC1)c1ccc(Cl)c(Cl)c1 | -2 | 2 | . | 2 | . | . | 6 | .
N/C(=N\OS(=O)(=O)c1cc(Cl)ccc1Cl)c1ccncc1 | -1 | 1 | 1 | 12 | 41 | i | -12 | 2
CCNS(=O)(=O)c1ccc2c3c(cccc13)C(=O)N2 | 3 | 1 | -7 | -47 | -3 | i | -17 | -2
O=C1CC(NCc2cccs2)C(=O)N1c1ccc(Cl)cc1 (stereo unspecified) | 3 | 1 | 3 | . | 4 | i | -11 | -14
Cc1ccc(N(CC(=O)N/N=C/c2cccc(Br)c2)S(C)(=O)=O)cc1 | -2 | -1 | 3 | -9 | 6 | i | -10 | -8
O=C(CCN1C(=O)c2ccccc2C1=O)Nc1ccncc1 | -2 | -1 | -5 | . | -2 | i | -7 | 0
Cn1c(=O)c2c(nc(CN3CCN(CCO)CC3)n2CCc2ccccc2)n(C)c1=O | 2 | 3 | 0 | -5 | -7 | i | 4 | -5
O=C(Nc1cc(S(=O)(=O)N2CCCC2)ccc1Cl)c1cc(F)c(F)c(F)c1F | -7 | -4 | . | -3 | . | . | -13 | -3
COc1ccc(CC(=O)NNC(=O)CCc2ccccc2)cc1OC | 2 | 4 | -10 | -11 | 24 | i | . | 5
CCCNC(=O)C1(CC2CC(c3ccccc3)=NO2)CCN(C(=O)C2CCCC2)CC1 (stereo unspecified) | 0 | 4 | . | 4 | . | . | -13 | 3
CCOC(=O)c1cnc2ccc(C)cc2c1Sc1ccccc1C(=O)OC | -4 | -12 | -19 | . | -4 | i | -6 | 3
CC(=O)Nc1ccc(S(=O)(=O)NCCSCc2ccco2)cc1 | -5 | -3 | 3 | . | 23 | i | -23 | 19
CCOc1ccc(N(CC(=O)Nc2ccccc2C)S(=O)(=O)c2c(C)noc2C)cc1 | 7 | -5 | -4 | -24 | -1 | i | -12 | 65
O=C(COC(=O)c1ccc(S(=O)(=O)N2CCOCC2)cc1)Nc1nc(-c2ccccc2)cs1 | 2 | 5 | 0 | . | 2 | i | -15 | -4
CCOC(=O)N1CCN(S(=O)(=O)c2c(C(=O)N3CCCCC3)c(C)n(C)c2C)CC1 | 4 | 4 | -14 | 1 | 8 | i | -8 | 6
C=CCSc1n[nH]c2nc3c(c(=O)n12)C1(CCCC1)Cc1ccccc1-3 | 1 | -5 | -4 | . | -11 | . | -12 | -7
Cn1nnnc1NCc1ccc(Cl)cc1 | -2 | 2 | -6 | 7 | -14 | i | . | .
Cc1nonc1NC(=O)CSc1nnc(-c2ccoc2C)n1C | 1 | 1 | 2 | -2 | -6 | i | -4 | -9
O=C(NCc1ccncc1)C(=O)NCC1OCCCN1S(=O)(=O)c1ccccc1 (stereo unspecified) | -2 | -4 | 9 | 24 | 3 | i | . | .
O=C(Nc1ccc2c(c1)OCO2)c1ccc(N2C(=O)c3ccccc3C2=O)cc1 | -1 | 1 | 4 | -25 | 11 | i | . | -15
O=C(CN(Cc1ccc(F)cc1)C(=O)CNS(=O)(=O)c1ccc(Cl)cc1)NCC1CCCO1 (stereo unspecified) | -1 | 3 | -3 | -2 | -6 | i | -4 | .
S=C(Nc1ccc(Cl)cc1Cl)N1CCN(c2ccccn2)CC1 | 4 | -1 | 11 | 33 | 10 | i | -4 | -9
C/C(=N\Nc1ccccc1Cl)c1ccc(-n2ccnc2)cc1 | -1 | 1 | -5 | -21 | -5 | i | -18 | 30
Cc1nnc(SC(C)C(=O)NC2CCCCC2)s1 (stereo unspecified) | 2 | 4 | . | 4 | . | . | -11 | .
Cc1nc(N)sc1N=Nc1ccc(Br)cc1 | 11 | 2 | 1 | i | 0 | i | -25 | 31
Cc1nc2ccccc2n1C1CC(=O)N(Cc2ccccc2)C1=O (stereo unspecified) | 3 | -3 | 2 | -4 | -2 | i | -19 | -5
CC(=O)c1nc(N2C(=O)C3CC=C(C)CC3C2=O)sc1C (stereo unspecified) | -3 | 0 | 5 | -21 | 17 | i | 1 | -5
CCCOC1CCCN(C(=O)c2cc(COc3c(F)cccc3F)on2)C1 (stereo unspecified) | 1 | -1 | -2 | -310 | 8 | i | 9 | -9
CCS(=O)(=O)N1Cc2ccccc2CC1C(=O)Nc1cccc(OC)c1 (stereo unspecified) | -2 | -1 | 0 | -15 | 9 | i | -1 | 4
C=CCc1ccc(OCCCOc2ccc(C(=O)O)cc2)c(OC)c1 | 0 | -5 | 3 | 0 | 3 | i | -17 | -7
CCOC(=O)C1=CCN(S(=O)(=O)c2ccccc2F)C1c1ccc(C)cc1 (stereo unspecified) | 0 | -3 | . | -10 | . | . | -13 | .
CC(C)CN(C(=O)CN1CCN(c2ccc(F)cc2)CC1)c1c(N)n(CC(C)C)c(=O)[nH]c1=O | 2 | 7 | -3 | -11 | 15 | i | . | -5
O=c1cc(O)c2c(=O)n(-c3ccccc3)c3ccccc3c2o1 | 1 | 1 | 11 | . | 8 | i | -22 | -9
CCCCCOc1ccc(NC(=O)CCCC(=O)O)cc1 | 0 | 4 | 0 | . | 9 | i | . | -6
O=C(CC1CCCC1)N1CCN(S(=O)(=O)c2cccc(Br)c2)CC1 | 6 | 0 | . | 1 | . | . | -16 | .
CCc1nc2ccc(C(=O)N3CCN(C)CC3)cn2c1N(C)CCC(C)C | -3 | 6 | . | 16 | . | . | -8 | .
OCC1(Cc2ccccc2)CCCN(C2CCCC2)C1 (stereo unspecified) | 0 | -1 | -8 | -8 | -6 | i | . | 6
Cc1cccc(OCc2nnc(SCC(=O)c3c(N)n(C4CC4)c(=O)[nH]c3=O)o2)c1 | 0 | 1 | . | -10 | . | . | -15 | .
O=C(Nc1ccc(S(=O)(=O)N2CCCCC2)cc1)C1CC(=O)N(c2ccc(F)cc2)C1 (stereo unspecified) | 1 | -7 | -4 | -4 | 0 | i | -17 | .
Cc1nc(N2CCN(c3ccccc3)CC2)nc2c1C(=O)CC(c1ccccc1)C2 (stereo unspecified) | 0 | -2 | -3 | 64* | -3 | i | -6 | 34
CC(=O)Nc1ccccc1C(=O)C(=O)O | 0 | 7 | 13 | . | 4 | i | 0 | -5
COC(=O)c1ccc(S(=O)(=O)NCCc2ccccc2OC)n1C | 0 | -1 | -7 | -6 | 4 | i | . | -3
CC(C)CN1CC(COCc2ccccc2)Oc2ccccc2S1(=O)=O (stereo unspecified) | 1 | -1 | . | i | . | . | 4 | .
Cc1cc(SCC(=O)N/N=C/c2ccc(O)cc2O)c(C)cc1Br | 3 | -6 | 10 | ? | -3 | i | -8 | 96*

Some of the entries so far, with tabs:
Molecule	MT1-MMP act inh	MT1-MMP act inh RFP	eIF4H inh	Env fusion inh	PABP FP inh	Rce1 inhib	UUG fidelity	CSC inhib
Cc1ccc(Cc2c(-c3ccc(F)cc3)nc3cc(C)ccn23)cc1	-2	-5	.	2	.	.	51	.
C[C@@H]1ON(C)[C@H]2C[C@H]3c4[nH]c5ccccc5c4CCN3C(=O)[C@@H]12	-2	5	.	-15	.	.	5	.
O=C(Cc1ccc(O)cc1)NC1CCCCCC1	0	-1	3	-26	1	i	-4	-7
COCCCNc1nc2nonc2nc1N1CCC(C(C)N2CCOCC2)CC1 (stereo unspecified)	-6	1	8	36	-2	i	-3	16
O=C(NCC(=O)N1CCCCCCC1)c1ccc(Cl)c(Cl)c1	-2	2	.	2	.	.	6	.
N/C(=N\OS(=O)(=O)c1cc(Cl)ccc1Cl)c1ccncc1	-1	1	1	12	41	i	-12	2
CCNS(=O)(=O)c1ccc2c3c(cccc13)C(=O)N2	3	1	-7	-47	-3	i	-17	-2
O=C1CC(NCc2cccs2)C(=O)N1c1ccc(Cl)cc1 (stereo unspecified)	3	1	3	.	4	i	-11	-14
Cc1ccc(N(CC(=O)N/N=C/c2cccc(Br)c2)S(C)(=O)=O)cc1	-2	-1	3	-9	6	i	-10	-8

(list continues)
SMILES | MT1-MMP act inh | MT1-MMP act inh RFP | eIF4H inh | Env fusion inh | PABP FP inh | Rce1 inhib | UUG fidelity | CSC inhib
C[n+]1cn(/N=C/c2ccccc2)c2ccccc21 | 4 | 6 | 1 | -13 | 24 | i | -17 | 13
CCCS(=O)(=O)Nc1ccc(-c2cn3c(n2)SCC3)cc1 | 2 | 4 | -23 | . | -1 | i | -8 | 2
CCOC(=O)N1CCN(C(=O)c2c[nH]c3ccc(S(=O)(=O)N(C)c4ccc(F)cc4)cc3c2=O)CC1 | -2 | -1 | . | -3 | . | i | -1 | -12
O=C(COc1ccc(Cl)cc1Cl)N/N=C/c1ccccn1 | 1 | 5 | -5 | 0 | -7 | i | -24 | 11
Cc1noc(C)c1C(=O)N1CCC(Cc2ccccc2)CC1 | -2 | 1 | -1 | 34 | 19 | i | -10 | -7
CC(C)CCN(C(=O)CNC(=O)c1cccs1)C(C(=O)NC1CCCC1)c1ccncc1 (stereo unspecified) | -1 | 2 | 10 | 5 | 8 | i | . | -2
COc1cccc(NC(=O)CSCc2cc(=O)n3ccsc3n2)c1 | -7 | -4 | -8 | . | -11 | i | -8 | -10
CCOC(=O)c1ccc(NC(=O)CNNC(=O)COc2ccccc2C)cc1 | 1 | 1 | . | -6 | . | . | -16 | -7
COc1ccc(OC)c(CCNC(=O)c2ccc(NC3=NC4CS(=O)(=O)CC4S3)cc2)c1 (stereo unspecified) | 0 | 5 | -7 | 4 | -6 | i | -15 | -15
Cc1ccc(C)c(NC(=O)CSc2ccc(-c3ccco3)nn2)c1 | 5 | 2 | 36 | -12 | 1 | i | -13 | 2
CN1C(=O)[C@H]2[C@@H](/C=C/c3ccccc3)N3C(=O)CN(CCO)C(=O)[C@@]3(Cc3ccccc3)[C@H]2C1=O | 1 | 5 | -7 | 8 | 2 | i | -15 | 11
CCCc1ccc(O)c(N=Cc2cc(Br)cc(OCC)c2O)c1 | -5 | -3 | 3 | 22 | -14 | i | . | 91*
COc1cc2c(cc1OC)C(C)N(C(=O)c1ccc(C)o1)CC2 (stereo unspecified) | -2 | -2 | -9 | -51 | 2 | i | -20 | 15
CCCCCNC(=O)[C@@H]1CSC2c3ccccc3C(=O)N21 (stereo partly specified) | . | . | 6 | -3 | 0 | i | . | -4

Bioassay records as filed in PubChem.
